MT1-MMP act inh = MT1-MMP (human) activation inhibition | GFP/RFP ratio change, % at 20 µM | actives 0.061% (n = 360,000) | P50281 | AID 651647 | HT1080 RFP-PRO-GFP cells, GFP/RFP ratio fluorescence, overnight; percent of plate control window, DMSO zero;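 active = GFP/RFP ratio change of at least 30% with cell ATP level not reduced by more than half and red fluorescence within 50% of control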; also: strong numbers were not always called active
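Material: RFP-PRO-GFP reporter HT1080 cells. Dosing: single-point 20 µM compound, 1% DMSO. Controls: DMSO and RFP-L50D-GFP cell wells. Timing: cells overnight before dosing, compound overnight, 37 °C, 5% CO2. Measure: GFP/RFP fluorescence ratio.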
UUG fidelity = alters start codon recognition fidelity in yeast | activity score, % at 18.7 µM | actives 0.13% (n = 350,000) | AID 602363 | S. cerevisiae UUG-firefly luciferase reporter, luminescence/redox ratio;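 active = replicate mean at a twofold rise or more, about +100% in these data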;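 also: firefly luciferase made from a UUG start codon reports start codon fidelity; reporter light over untreated wells divided by growth signal over untreated wells; some hits fall short of that in this replicate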
Rce1 inhib = yeast Ras-converting enzyme inhibition | yeast membranes, quenched prenylated peptide cleavage fluorescence | calls only | actives 0.27% (n = 290,000);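 active = fall in fluorescence gain of 50% or more versus controls, with final raw signal at or below 3038400; inconclusive = same 50% fall but final raw signal above 3038400; inactive = fall in fluorescence gain under 50%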;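 also: plate controls were neutral control wells for no effect and wells lacking membranes for full effect; tested at 10 µM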
Target sequence (Q03530 whole entry, looked up): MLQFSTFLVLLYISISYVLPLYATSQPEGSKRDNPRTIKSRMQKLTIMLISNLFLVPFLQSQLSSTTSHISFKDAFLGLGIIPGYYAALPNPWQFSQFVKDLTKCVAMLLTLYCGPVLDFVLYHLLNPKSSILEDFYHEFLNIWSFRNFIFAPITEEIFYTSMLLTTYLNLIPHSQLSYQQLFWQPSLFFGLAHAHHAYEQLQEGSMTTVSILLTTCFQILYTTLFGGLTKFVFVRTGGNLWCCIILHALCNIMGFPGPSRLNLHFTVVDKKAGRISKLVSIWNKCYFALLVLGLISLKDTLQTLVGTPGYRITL
HIV Env fusion = blocks HIV Env-driven cell-cell fusion; HeLa-JRFL Env/CEM21 cell fusion, luciferase; actives 1.1% (n = 360,000); AID 651610; inhibition, % at 12.3 µM;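 active = mean replicate inhibition score of at least 50 and every replicate individually at or above 50; inconclusive = only one of the two criteria met; inactive = mean below 50 and not all replicates reaching 50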;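 also: 0% = plate neutral controls and 100% = maraviroc near 300 nM; one replicate is shown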
PABP polyA inh = blocks human PABP binding to poly(A) RNA; P11940; fluorescence polarization; inhibition, % at 35 µM; actives 1% (n = 290,000); AID 2014;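 active = 50% or more with normal probe brightness, or confirmed in later tests; inconclusive = above 50% with abnormal brightness, or retests that disagree; inactive = below 50% or failed in later tests; about a fifth of its hits are not listed in these tables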;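 also: calls also rest on retests at 20 µM and on dose response follow-up; controls were probe without protein and protein plus probe with vehicle; some compounds called inactive have numbers as strong as hits; many hits fall short of the cut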
eIF4H inh = inhibitors of RNA binding by human eIF4H; eIF4H fluorescence polarization binding assay; Q15056; inhibition, % at 35 µM; actives 0.94% (n = 290,000);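 active = 50% or more with normal probe brightness, or confirmed in later tests; inconclusive = above 50% with abnormal brightness, or retests that disagree; inactive = below 50% or failed in later tests; about a fifth of its hits are not listed in these tables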;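 also: calls also rest on retests at 20 µM and on dose response follow-up; 0% = protein and probe with vehicle and 100% = probe without protein; strong numbers were not always called active; many hits fall short of the cut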
CSC inhib = blocks cancer stem cells | cancer stem cell-like cells viability, luminescence | inhibition, % at 7.5 µM | actives 1.1% (n = 300,000) | AID 2717;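 active = mean at 75% or more and at least half the replicates too; inconclusive = mean and replicates disagree; tested in HMLE shEcad cells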;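 also: 0% = median of negative and 100% = median of positive control wells; the first replicate is given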
eIF4H inh retest = further read-out of eIF4H inh, marked with its call; inhibition, %; compound at 20 µM; confirmation average;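 mean of two retest wells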
PABP polyA inh retest = further read-out of PABP polyA inh, marked with its call; inhibition, %; compound at 20 µM; confirmation repeats;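 mean of two retest wells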
MT1-MMP act inh RFP = recorded beside MT1-MMP act inh, whose call it bears; RFP signal change, %; measured here: RFP expression control read;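 0 = vehicle wells; hits needed this value within 50% of zero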
Starred values were filed as active, the others as inactive; i = inactive; ? = inconclusive; / = not tested or not shown; & = joins results of further samples.

SMILES	MT1-MMP act inh	MT1-MMP act inh RFP	UUG fidelity	Rce1 inhib	HIV Env fusion	PABP polyA inh	eIF4H inh	CSC inhib	others
CCCCNc1nc2c(c(=O)n(C)c(=O)n2C)n1Cc1cccc(OC)c1	-5	-20	-5	i	88*	3	0	-3
CCCOc1ccccc1C(=O)N(Cc1cccs1)C1CCS(=O)(=O)C1 (stereo unspecified)	2	4	-8	i	/	-7	-10	-10
CCOc1cc(C(=O)NCCC(=O)N2CCC3(CC2)NCCc2[nH]cnc23)cc(OCC)c1OCC	3	-1	8	i	-3	-2	-2	-13
O=c1[nH]c2c(Br)cnc([N+](=O)[O-])c2[nH]1	3	5	-17	i	11	-10	-3	-10
CCN(C(=O)COC(=O)CCNS(=O)(=O)c1ccccc1F)c1c(N)n(Cc2ccccc2)c(=O)[nH]c1=O	-2	2	-19	/	/	/	/	-6
CCC(NC(=O)CCl)c1ccc(C)cc1 (stereo unspecified)	3	3	/	i	-28	-16	-9	-2
CC(=O)c1cccc(NC(=O)c2ccc3c(c2)C(=O)N(Cc2cccnc2)C3=O)c1	-1	1	-14	i	0	8	-4	-5
CC(=O)C1=C(O)C(=O)N(Cc2ccco2)C1c1cccc(F)c1 (stereo unspecified)	0	3	-15	i	-4	-2	1	10
Cc1nc(SC2CC(=O)N(c3ccc([N+](=O)[O-])cc3)C2=O)nc2c1CCCC2 (stereo unspecified)	1	-5	-10	i	/	-8	-4	-11
COC(=O)CC1=Nc2ccccc2NC(=O)C1	3	2	/	i	-7	-8	-6	-11
S=C(NCCSCc1c(Cl)cccc1Cl)Nc1ccccc1	2	-8	-37	i	-47	3	-11	/
CN(C[C@@H](Cc1cccc2ccccc12)N(C[C@H](Cc1ccccc1)N(CCc1ccccc1)N=O)N=O)N=O	-4	-6	-13	i	26	-2	-14	6
COC(=O)Cc1ccc(NC(=S)Nc2cccc(C)n2)cc1	0	-9	/	i	-15	0	-3	3
O=C(CCN1C(=O)c2ccccc2C1=O)Nc1ccccc1C(=O)N1CCOCC1	6	-2	-1	i	/	2	-1	-3
O=c1c(Cc2ccc(F)cc2)c(O)ccn1C1CCCCC1	-1	0	-11	i	/	7	-1	-4
CC(C)(C)[C@H]1COC(=O)[C@H](NC(=O)OCC2c3ccccc3-c3ccccc32)C/C=C\C[C@@H](CC(=O)N[C@H](CO)Cc2ccccc2)C(=O)N1	0	0	-15	/	7	/	/	/
COc1ccc(-c2cc(C(F)F)n3ncc(C(=O)N4CCc5ccccc54)c3n2)cc1	2	-8	-31	i	11	8	-2	61
CC(C)(C)OC(=O)C[C@@H]1C/C=C\C[C@@H](CC(=O)NCCO)C(=O)N[C@H](C(C)(C)C)COC1=O	0	3	2	/	-7	/	/	/
O=C(NCc1cccc(F)c1)c1cccc2c1C(=O)c1ccc(Cl)cc1S2(=O)=O	9	3	5	/	-52	/	/	7
O=C(NCC1CCCO1)c1ccc(Cl)c(F)c1F (stereo unspecified)	3	0	-1	i	/	-5	-5	-15
Cc1ccc(OCC(=O)Nc2ccc(-n3cnnn3)cc2)c(C)c1	9	2	-10	/	-30	/	/	/
COc1cc(CNc2ccc3[nH]c(=O)[nH]c3c2)ccc1OCc1ccc(Cl)cc1	-1	-12	-17	i	-12	1	-4	14
Cc1cc(NC(=O)CSc2nnc(-c3ccncc3)n2-c2ccccc2)no1	-2	-1	/	i	9	2	0	-3
Cc1ccc(NC(=O)CNC(=O)c2ccc(Oc3ccccc3)cc2)nc1	7	1	3	i	/	/	/	5
COc1cc(/C=N/N2CCN(C3c4ccccc4-c4ccccc43)CC2)ccc1O	5	2	/	i	/	-6	-11	51

(continued)
SMILES	MT1-MMP act inh	MT1-MMP act inh RFP	UUG fidelity	Rce1 inhib	HIV Env fusion	PABP polyA inh	eIF4H inh	CSC inhib	others
O=C(CCCCn1ccc(=O)[nH]c1=O)Nc1ccc(C(=O)O)c(O)c1	9	0	-14	/	28	/	/	/
O=C(CCN1C(=O)/C(=C\c2ccccc2)SC1=S)Nc1ccc(C(=O)O)cc1	0	-1	5	i	-7	-4	-9	9
COc1ccc(C(=O)n2nc(C)cc2Nc2ccccc2)cc1	-1	-1	-28	i	/	-11	0	-9
O=C(CN1CCN(c2ccc(F)cc2)CC1)c1ccc(O)cc1O	2	5	-33	i	-1	-2	11	-7
Cc1ccccc1NS(=O)(=O)c1cc(C(=O)NCCSC2CCCCC2)ccc1C	-13	-12	-7	i	/	6	-7	/
CCCCCCCOc1ccc(C2(C)NC(=O)NC2=O)cc1 (stereo unspecified)	-3	-6	-11	i	?	-2	-4	4
COCCN1CCN(Cc2cn(C)nc2-c2ccc(Oc3ccccc3)cc2)CC1	1	-2	-6	i	-4	4	-6	25
COc1ccccc1CCN1CCCC(CN(C)CC(C)(C)CO)C1 (stereo unspecified)	1	0	1	i	-32	5	1	/
CCC(CO)(CO)N(CC(=O)Nc1ccc(OC)cc1)CC(=O)Nc1ccc(OC)cc1	8	8	-2	i	-10	-3	4	41
FC(F)(F)c1cccc(NC(=S)NC(c2ccccc2)c2ccccc2)c1	-1	-21	-14	i	/	-6	-7	36
COc1ccccc1C(=O)NC(=O)CSc1cccc[n+]1[O-]	3	2	/	i	12	-15	-8	-9
CCC1(c2ccc(F)cc2)NC(=O)N(CC(=O)NC2CCCCCC2)C1=O (stereo unspecified)	3	-4	-9	/	-3	/	/	-14
O=c1c2c3c(sc2nc(NCCO)n1-c1ccccc1)CCCC3	-8	0	-12	i	-145	-1	-5	-7
CN[C@H](C)C(=O)NC[C@H]1O[C@@H](n2cc(C)c(=O)[nH]c2=O)C[C@@H]1O	-2	1	-13	/	1	/	/	/
CC1CCCN(CCCOc2ccccc2-c2ccccc2)C1 (stereo unspecified)	-3	-3	/	i	1	-16	10	/
O=C(CSC1=NCCN1)NC1CCCCCC1	0	4	-8	i	-44	7	-6	-4
CN(C(=O)c1ccc(F)cc1)c1ccccc1C(=O)NCc1ccccc1	-4	5	-20	i	/	-4	5	3
CCOc1ccccc1NC=C1C(=O)OC2(CCCCC2)OC1=O	-3	-6	-9	i	/	5	-1	-3
Cc1cccc(CN2CCN(Cc3cccc4nonc34)CC2CCO)n1 (stereo unspecified)	-2	4	-13	i	7	1	0	-3
CN(C)C(=O)c1ccc(NC(=O)COc2cccc(Oc3ccccc3)c2)cc1	-5	0	-7	i	-1	57*	23	-3	eIF4H inh retest=38;PABP polyA inh retest=64*
CCCN(C(=O)COC(=O)COc1c(C)cccc1C)c1c(N)n(Cc2ccccc2)c(=O)[nH]c1=O	3	1	-2	i	-5	/	/	-5
COC(=O)COc1cccc(NC(=O)C(c2ccccc2)c2ccccc2)c1	1	6	-14	i	11	-3	-2	-13
Cc1cc(C)n(S(=O)(=O)c2ccc(C)c(C)c2)n1	0	1	-13	i	4	-1	-6	-4
O=C(COC(=O)c1cccs1)Nc1ccc(Cl)cn1	-1	3	-14	/	/	/	/	-14
COCCNC(=O)CSc1nc2sc(C)c(C)c2c(=O)n1-c1ccccc1	-1	-3	-6	i	19	1	-1	-9

In the list so far, these have a nitro group on carbon:
SMILES	MT1-MMP act inh	MT1-MMP act inh RFP	UUG fidelity	Rce1 inhib	HIV Env fusion	PABP polyA inh	eIF4H inh	CSC inhib	others
O=c1[nH]c2c(Br)cnc([N+](=O)[O-])c2[nH]1	3	5	-17	i	11	-10	-3	-10
Cc1nc(SC2CC(=O)N(c3ccc([N+](=O)[O-])cc3)C2=O)nc2c1CCCC2 (stereo unspecified)	1	-5	-10	i	/	-8	-4	-11

Other structures
SMILES	MT1-MMP act inh	MT1-MMP act inh RFP	UUG fidelity	Rce1 inhib	HIV Env fusion	PABP polyA inh	eIF4H inh	CSC inhib	others
O=C(CSc1ccc(-c2ccccn2)nn1)NCc1ccc(Cl)cc1	0	-4	/	i	41	1	5	9
COc1ccc(-c2cncnc2N)cc1OC	-4	-2	-32	/	4	/	/	/
CCOC(=O)c1cccnc1SC(CC)C(=O)NCc1ccco1 (stereo unspecified)	1	0	-11	i	7	8	-6	/
CC1Cn2c(nnc2-c2ccccc2O)S1 (stereo unspecified)	1	6	-15	i	16	-6	-3	/
O=C(c1ccncc1)N1CCN(C2CCC(c3ccccc3)CC2)CC1 (stereo unspecified)	5	4	-5	i	-5	1	13	33
COc1n[nH]c(C(=O)Nc2cc(F)ccc2C)c1[N+](=O)[O-]	5	-1	-3	i	/	-2	5	11
N#CC(C#N)=Cc1cn(-c2ncc(C(F)(F)F)cc2Cl)c2ccccc12	-9	-5	/	i	/	-16	-12	1
CC(CCCC(C)(C)O)NC(=O)c1cc(COc2ccc3ncccc3c2)on1 (stereo unspecified)	-8	-32	/	i	0	-10	0	-6
CCNC(=O)C(=O)N/N=C/c1cc([N+](=O)[O-])ccc1O	2	2	/	i	11	-1	11	/
C/C(=N\NS(=O)(=O)c1ccc([N+](=O)[O-])cc1)c1ccc2c(c1)OCO2	-1	0	7	i	-9	-5	-17	-6
CC(C)Cc1nc2oc3c(Cl)ncnc3c2c2c1CCC2	-10	-11	/	i	/	3	-6	86*
COc1ccc(C(=O)CCC(=O)Nc2cccc(Cl)c2)cc1	-6	-4	-22	i	-7	-5	-8	-7
COC(=O)CC(N)c1ccc(OC)c2ccccc12 (stereo unspecified)	0	0	-13	i	/	5	4	-14
Cc1cc(Br)cc(C)c1OCC(=O)NNC(=O)CCC(=O)NCc1ccccc1	1	4	-7	i	-5	-1	8	-12
COc1ccc(NC(=O)c2ccc3nc(C)sc3c2)cc1	2	0	-13	i	-35	-3	0	-2
CC1=C(C(=O)Nc2ccccc2C)C(c2ccccc2)NC(=O)N1 (stereo unspecified)	-2	5	-11	i	-5	9	-6	0
CCOC(=O)c1cn(Cc2cccc(Cl)c2)c2cc(C)nn2c1=O	-3	1	/	i	3	1	6	8
CCOc1ccc(C(=O)CCc2nc3ccccc3s2)cc1	7	-2	-1	i	-35	0	-13	-4
CC1=CC(=O)C=C/C1=C(/c1ccc(O)cc1C)c1ccccc1S(=O)(=O)O	10	3	30	/	/	/	/	-21
COc1ccccc1CNC(=O)C1CCC(CNS(=O)(=O)c2ccc(NC(C)=O)cc2)CC1 (stereo unspecified)	0	-1	-8	i	11	-8	1	4
C[C@@H]1CCCCO[C@@H](CN(C)S(C)(=O)=O)[C@@H](C)CN([C@H](C)CO)C(=O)c2cc(N(C)C)ccc2O1	-3	6	-1&-11	/	-11	/	/	/
Cc1[nH]n2c(=O)c(C#N)c(-c3ccccc3)nc2c1-c1ccccc1	1	-2	-20	i	-151	0	68	-7	eIF4H inh retest=-1;PABP polyA inh retest=-3
CC(=O)Nc1cccc(NC(=O)CSc2ccc(C(F)(F)F)cc2[N+](=O)[O-])c1	4	0	-11	i	/	-2	-5	10

Grouped by structure: the entries above containing a thiophene ring, fused or not (four)
SMILES	MT1-MMP act inh	MT1-MMP act inh RFP	UUG fidelity	Rce1 inhib	HIV Env fusion	PABP polyA inh	eIF4H inh	CSC inhib	others
CCCOc1ccccc1C(=O)N(Cc1cccs1)C1CCS(=O)(=O)C1 (stereo unspecified)	2	4	-8	i	/	-7	-10	-10
O=c1c2c3c(sc2nc(NCCO)n1-c1ccccc1)CCCC3	-8	0	-12	i	-145	-1	-5	-7
O=C(COC(=O)c1cccs1)Nc1ccc(Cl)cn1	-1	3	-14	/	/	/	/	-14
COCCNC(=O)CSc1nc2sc(C)c(C)c2c(=O)n1-c1ccccc1	-1	-3	-6	i	19	1	-1	-9
